Screening data (PubChem)
KCNQ2 pot: KCNQ2 (rat) channel potentiation; O88943; B-score at 10 µM; 310,000 tested, 0.54% active; AID 2239; CHO-K1 KCNQ2, FluxOR thallium flux fluorescence; hits give high values;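 active means fluorescence ratio B-score at least 3 SD of library B-scores, with initial fluorescence B-score within 3 SD, cut at about 5.3 in these data; same plate scores as AID 2156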;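 further: B-score of peak minus minimum over baseline fluorescence ratio after K+ and Tl+ stimulus; positive B-score means potentiation of KCNQ2 with more thallium influx and brighter signal; only the inactives scoring about 0 or higher are listed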
Target sequence (O88943 whole entry, looked up): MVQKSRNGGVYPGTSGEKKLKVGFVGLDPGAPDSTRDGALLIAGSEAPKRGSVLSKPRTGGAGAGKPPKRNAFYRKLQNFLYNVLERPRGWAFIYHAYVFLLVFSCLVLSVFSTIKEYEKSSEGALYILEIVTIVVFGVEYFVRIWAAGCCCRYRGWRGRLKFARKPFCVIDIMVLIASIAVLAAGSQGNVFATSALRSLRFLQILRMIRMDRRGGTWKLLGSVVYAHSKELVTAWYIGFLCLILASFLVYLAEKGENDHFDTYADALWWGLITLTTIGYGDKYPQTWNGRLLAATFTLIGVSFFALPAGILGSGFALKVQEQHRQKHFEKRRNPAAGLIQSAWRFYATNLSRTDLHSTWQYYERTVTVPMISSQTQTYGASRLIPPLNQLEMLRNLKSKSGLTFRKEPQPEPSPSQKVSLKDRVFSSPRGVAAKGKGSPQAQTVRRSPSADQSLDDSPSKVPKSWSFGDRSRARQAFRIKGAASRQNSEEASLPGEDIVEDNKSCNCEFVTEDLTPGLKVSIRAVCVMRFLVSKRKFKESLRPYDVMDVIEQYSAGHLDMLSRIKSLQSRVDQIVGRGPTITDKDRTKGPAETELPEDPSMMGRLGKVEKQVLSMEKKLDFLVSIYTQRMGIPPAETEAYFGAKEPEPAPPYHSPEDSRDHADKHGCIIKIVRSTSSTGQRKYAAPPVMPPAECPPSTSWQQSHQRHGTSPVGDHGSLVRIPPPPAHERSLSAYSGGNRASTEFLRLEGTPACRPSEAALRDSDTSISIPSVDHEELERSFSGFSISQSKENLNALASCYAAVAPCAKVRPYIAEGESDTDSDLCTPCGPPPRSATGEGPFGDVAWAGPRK
KCNQ2 pot baseline: also measured in KCNQ2 pot; calls as there; B-score; compound at 10 µM; measured here: initial fluorescence intensity artifact check;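 brightness before thallium and not channel activity; 0 = typical well and far values either way flag optical interference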
An asterisk follows results filed as active; x = not tested or not shown.

SMILES | KCNQ2 pot | KCNQ2 pot baseline
Cc1onc(-c2ccccc2)c1C(=O)N/N=C/c1cccs1 | 0.38 | -2.98
O=C1CC(SCc2nc3ccccc3[nH]2)C(=O)N1c1ccc(F)cc1 (stereo unspecified) | 0.89 | -0.67
CCN(CC)CCn1c(=N)n(CC(=O)c2ccc(C)cc2)c2ccccc21 | 0.62 | 1.78
CCOc1ccc(S(=O)(=O)Nc2ccc(C(=O)N3CCCC3)cc2)cc1 | 0.03 | -0.41
Cc1ccc(C(C(=O)NCc2ccccc2)N(Cc2ccco2)C(=O)c2snc(C(N)=O)c2N)o1 (stereo unspecified) | 2.18 | -0.65
O=C(CCN1C(=O)c2ccccc2C1=O)NCc1ccccc1 | 0.19 | 0.76
CCn1c(SCC(=O)NC2CC2)nnc1-c1ccc(C)cc1 | 0.39 | -0.05
Cc1nnsc1C(=O)NC1CCCCC1 | 1.29 | 0.17
CCOC(=O)C1=C(C)N(CCCC(=O)O)C(=O)NC1c1ccccc1OC(=O)c1cccs1 (stereo unspecified) | 1.73 | -0.4
COc1ccc(-c2cc(N)n(CCC#N)n2)c(OC)c1 | 1.15 | -3.28
COc1ccc(NC(=O)C/C(C)=N/NC(=O)c2cnccn2)c(OC)c1 | 0.81 | 1.65
COCc1ccc(CN2CCC(C(=O)Nc3cccc(-c4cscn4)c3)CC2)o1 | 0.54 | 1.73
Cc1occc1C(=O)N(C)Cc1nc(-c2ccccc2)no1 | 0.07 | -0.31
Cc1cnnn1-c1ccc([N+](=O)[O-])cc1 | 0.8 | 0.35
O=C(Cn1ncc2c(=O)oc3ccccc3c21)NCC1CCCO1 (stereo unspecified) | 1.48 | -0.63
CN(Cc1ccc(F)cc1)C(=O)c1cccc(S(=O)(=O)N2CCN(c3ccccc3)CC2)c1 | 0.01 | 0.4
C=CCSC1=N/C(=C\c2ccc3c(c2)OCO3)C(=O)S1 | 0.47 | -0.51
O=C(NCCc1ccccc1)c1cc2ncc(Br)cn2n1 | 1.18 | -0.06
CCOc1ccccc1NC(=O)COC(=O)CC(NC(N)=O)c1ccc(Cl)cc1 (stereo unspecified) | 0.59 | 1.8
Cc1cc(C(C#N)c2cccc(Cl)c2)n2ncnc2n1 (stereo unspecified) | 0.02 | -1.56

5 compounds out of the list, sorted by number of heavy atoms, highest first.
SMILES | KCNQ2 pot | KCNQ2 pot baseline
CN(Cc1ccc(F)cc1)C(=O)c1cccc(S(=O)(=O)N2CCN(c3ccccc3)CC2)c1 | 0.01 | 0.4
COCc1ccc(CN2CCC(C(=O)Nc3cccc(-c4cscn4)c3)CC2)o1 | 0.54 | 1.73
CCOc1ccc(S(=O)(=O)Nc2ccc(C(=O)N3CCCC3)cc2)cc1 | 0.03 | -0.41
Cc1onc(-c2ccccc2)c1C(=O)N/N=C/c1cccs1 | 0.38 | -2.98
C=CCSC1=N/C(=C\c2ccc3c(c2)OCO3)C(=O)S1 | 0.47 | -0.51

The list goes on:
SMILES | KCNQ2 pot | KCNQ2 pot baseline
COc1cc(O)c2c(c1)COC2=O | 0.33 | 0.39
O=C(O)CSc1nnc(-c2cccc(S(=O)(=O)N3CCCCC3)c2)o1 | 1.41 | -0.44
COc1cc(C#N)ccc1OC(=O)Cc1cc(OC)c(OC)c(OC)c1 | 0.57 | 0.67
C/C(CC(=O)NC1CCCCC1)=N\NC(=O)c1ccc(Br)cc1 | 1.77 | 0.6
Cc1ccc(NC(=O)c2ccccc2N2C(=O)C3C4C=CC(C5CC45)C3C2=O)cc1C (stereo unspecified) | 2.21 | -0.65
CCNC(=O)COc1ccc(/C=N/NC(=O)c2cccnc2)cc1OC | 0.09 | 0.09
CNC(=O)NC(=O)COC(=O)CCc1nc(=O)c2ccccc2n1C | 0.43 | 1.12
COc1ccc(NC(=O)C2CC2)cc1-n1cnnn1 | 3.68 | 2.53
CCC(C(=O)N1CCOCC1)n1c2ccccc2c2nc(=O)cc(C)n21 (stereo unspecified) | 3 | -0.38
COc1ccc(NC(=S)NN(C)C(=S)Nc2ccc(OC)cc2)cc1 | 0.03 | -0.87
COc1ccc(CN(Cc2ccc(C(=O)O)cc2)C(=S)Nc2ccc(C)cc2)cc1OC | 1.47 | -0.43
Cc1nc(OCc2ccccc2)c2sc3nc4c(cc3c2n1)COC(C)(C)C4 | 2.9 | -1.17
O=C(CCC1CCCCC1)Nc1c2c(nn1-c1ccc(F)cc1)CS(=O)C2 (stereo unspecified) | 10.5* | 0.22*
COCCCNC(=O)CC(NCCCOC)C(=O)O (stereo unspecified) | 0.41 | -0.47
CN(C)/N=C/c1ccc(Sc2ccc([N+](=O)[O-])cc2[N+](=O)[O-])o1 | 0.29 | -0.67
O=C(COc1ccc([N+](=O)[O-])cc1)NC(C(=O)O)C(O)c1cccc([N+](=O)[O-])c1 (stereo unspecified) | 0.67 | 0
COc1ccc(CNC(=O)C2(CC3CC(c4ccccc4)=NO3)CCNCC2)cc1 (stereo unspecified) | 0.05 | 1.17
CCN(CC)S(=O)(=O)c1cccc(C(=O)NCC2CCCCC2)c1 | 1.35 | 0.45
Cc1cccc(C)c1NC(=O)CN1C(=O)S/C(=C\c2cccn2C)C1=O | 0.86 | 0.02
Cc1onc(-c2ccccc2)c1C(=O)NCc1cccc(Cl)c1 | 1.19 | -0.03
O=C(CSc1nc2ccccc2n1Cc1ccccc1)N/N=C/c1ccccc1C(=O)O | 0.51 | 0.74
Cn1c(=O)[nH]c(Nc2ccccc2)c([N+](=O)[O-])c1=O | 1.43 | 0.08
COc1cccc(COC(=O)c2cc(S(=O)(=O)N3CCCCC3)ccc2N2CCOCC2)c1OC | 0.31 | 1.28
CN(C)S(=O)(=O)N1CCN(CC(O)COc2ccc(C(=O)c3ccccc3)cc2)CC1 (stereo unspecified) | 1.05 | 0.01
Cc1ccc(Nc2n[nH]c(C)c2[N+](=O)[O-])cc1C | 0.56 | -0.05
O=C(COC(=O)c1cccc(S(=O)(=O)N2CCCC2)c1)Nc1ccccc1 | 1.61 | 1.51
N/C(=N\OC(=O)c1cc(Cl)ccc1Cl)c1cccnc1 | 0.12 | 2.04
CC(C)C(c1nnnn1CCc1ccccc1)N1CCOCC1 (stereo unspecified) | 2.09 | -2.65
Cc1sc(NC(=O)c2cc(-c3ccc(Cl)cc3)nc3ccccc23)c(C(N)=O)c1C | 0.25 | 0.66
COc1ccccc1C(=O)Nc1ccc(S(=O)(=O)N2CCOCC2)cc1 | 1.41 | 1.91
COc1cc(Cl)ccc1OCc1cc(C(=O)N(C)Cc2cccc3cnccc23)no1 | 0.2 | -1.2
O=C(NC1CCCC1)C(c1ccc(F)cc1)N(Cc1ccc(Cl)cc1)C(=O)CCl (stereo unspecified) | 0.01 | 2.32
COCCN(C(=O)CSc1nncn1-c1ccccc1)c1c(N)n(Cc2ccccc2)c(=O)[nH]c1=O | 1.1 | -0.9
Cc1ccc(N(C)S(=O)(=O)c2csc(C(N)=O)c2)cc1C | 0.86 | 0.27
NC(=O)CC(NC(=O)c1ccc(Br)cc1)c1ccc(NC2CCCCCC2)c([N+](=O)[O-])c1 (stereo unspecified) | 2.11 | -1.78
COC(CNC(=O)C1CCC(CNS(=O)(=O)c2c(C)cc(C)cc2C)CC1)OC (stereo unspecified) | 0.32 | -0.26
CCC(=O)/C=C1\Sc2ccc(OC)cc2N1CCO | 0.01 | -1.83
Cc1ccc(N2C(=O)CC(Sc3ncccn3)C2=O)cc1C (stereo unspecified) | 0.68 | 0.72
C=CCn1c(C)nnc1SCC(=O)NC1CC1 | 0.9 | 3.21
CCN(CC1COc2ccccc2O1)C(=S)Nc1ccc(F)cc1 (stereo unspecified) | 1.69 | 1.56
COc1cc(/C=N/NC(=O)c2cnn3c(C)cc(-c4ccccc4)nc23)ccc1O | 1.51 | -1.84
COc1ccc(S(=O)(=O)NCC2CC3C=CC2C3)cc1OC (stereo unspecified) | 0.96 | 1.43
C=CCNc1nc(=S)[nH]c2cc(OC)c(OC)cc12 | 0.69 | 0.8
COc1ccccc1/C=N/NC(=O)c1ccc2c(c1)OCO2 | 1.03 | -0.03
COCCCNC(=O)CCc1nc2cccnc2n1Cc1ccccc1 | 0.25 | 0.79
Cc1ccn2c(=O)nc(SCC(=O)N3CCC(C)CC3)nc2c1 | 0.37 | -0.95
COc1ccc(C(=O)Nc2cc(C)ccc2NC(=O)COc2ccccc2)cc1 | 0.65 | 0.35
CC(C)[C@H]1C(=O)Nc2ccccc2N1C(=O)N[C@@H](Cc1ccccc1)C(=O)N[C@H](Cc1ccccc1)C(=O)O | 1.14 | -0.03
O=C(Oc1ccccc1C(=O)N1CCOCC1)c1ccc(F)cc1 | 0.83 | 0.03
COCCNC(=O)CSc1nc2nc(C)cc(C)n2n1 | 0.27 | 1.22
O=c1c2ccccc2c(=O)n(Cc2ccccc2)n1Cc1ccccc1 | 1.46 | -0.34
COc1cc(S(=O)(=O)NC2CCCCC2C)ccc1-n1cnnn1 (stereo unspecified) | 0.33 | 0.83
O=c1[nH]ccc2c([N+](=O)[O-])cccc12 | 0.07 | -0.25
CCCn1c2ccccc2c2cn[nH]c(=O)c21 | 0.45 | 2.02
COc1ccc(/C=C/C(=O)c2sc(-c3ccccc3)nc2C)cc1 | 2.3 | -2.11
COC(=O)[C@@H]1CC(O)CN1C(=O)C12CC3CC(CC(C3)C1)C2 (stereo partly specified) | 0.41 | -0.11
Cc1ccc(-n2c(O)c(C=Nc3ccccc3-c3n[nH]c(=S)[nH]c3=O)c3ccccc3c2=O)cc1C | 2.16 | -1.37
C=CCn1c(N)nc2ccccc21 | 0.6 | -2.22
COC(=O)c1cc2nc(-c3ccccc3)cc(C)n2n1 | 1.56 | 0.61
CCN(CC)S(=O)(=O)c1cc(NS(=O)(=O)c2cccc(C(=O)O)c2)ccc1C | 0.97 | -0.07

Compounds from the list above that have a thiophene ring, fused or not:
SMILES | KCNQ2 pot | KCNQ2 pot baseline
Cc1onc(-c2ccccc2)c1C(=O)N/N=C/c1cccs1 | 0.38 | -2.98
CCOC(=O)C1=C(C)N(CCCC(=O)O)C(=O)NC1c1ccccc1OC(=O)c1cccs1 (stereo unspecified) | 1.73 | -0.4
Cc1nc(OCc2ccccc2)c2sc3nc4c(cc3c2n1)COC(C)(C)C4 | 2.9 | -1.17
Cc1sc(NC(=O)c2cc(-c3ccc(Cl)cc3)nc3ccccc23)c(C(N)=O)c1C | 0.25 | 0.66
Cc1ccc(N(C)S(=O)(=O)c2csc(C(N)=O)c2)cc1C | 0.86 | 0.27

Following part.
SMILES | KCNQ2 pot | KCNQ2 pot baseline
CN(Cc1cnccn1)C(=O)CC1C(=O)NCCN1Cc1c(F)cccc1Cl (stereo unspecified) | 0.01 | -1.29
O=C(O)c1ccc(-n2cccc2/C=N\NC(=O)c2cc3cc(Br)ccc3o2)cc1 | 4.83 | -0.56
CC(=O)NC(Cc1cc(C)ccc1C)C(=O)N1CCN(C(=O)Nc2ccc(C(C)=O)cc2)CC1 (stereo unspecified) | 0.99 | 0.11
Cc1nc(SCC(=O)Nc2nc3ccccc3s2)n[nH]1 | 0.21 | 1
CC(C)C(C(=O)NCC1CCCO1)N(Cc1ccco1)C(=O)CNS(=O)(=O)c1ccc(F)cc1 (stereo unspecified) | 1.87 | 0.1
CCOC(=O)c1cnn2c(N)c(C#N)cnc12 | 1.55 | 0.51
COc1cccc(C(=O)NN2CC(O)=C(c3nc4ccccc4n3C)C2=N)c1 | 2.2 | -1.23
CCOCCCNC(=S)NC1CC2CCC(C1)N2Cc1ccccc1 (stereo unspecified) | 0.71 | -0.68
Nc1cc(C(=O)O)ccc1N1CCCCC1 | 0.25 | 0.67
C=CCN=C(C)C1=C(O)C(C)OC1=O (stereo unspecified) | 0.9 | 0.01
CC(=O)c1ccc(N2CCN(S(=O)(=O)c3cn(C)c(C)n3)CC2)cc1 | 0.6 | 0.02
N=C1/C(=C\c2ccc(SCc3ccccc3)o2)C(=O)N=C2SC=NN12 | 0.4 | -0.6
Cn1c(CCNC(=O)c2ccco2)nc2cc(NS(=O)(=O)c3ccccc3)ccc21 | 1.01 | -0.92
O=[N+]([O-])c1cccc(NC(=S)NCc2ccncc2)c1 | 0.07 | 1.2
O=C(NCc1ccccc1F)C1CCCN1C(=O)Nc1ccc(Cl)cc1 (stereo unspecified) | 0.37 | 0.99
O=C(O)c1cc(O)ccc1N=Nc1ccccc1 | 0.18 | 0.04
O=C(O)c1cccc(NC2=C(N3CCOCC3)C(=O)c3ccccc3C2=O)c1 | 2.48 | 0.71
CCOC(=O)C1CCN(c2c(C(=O)c3ccccc3)cnc3ccc(Cl)cc23)CC1 | -5.58 | x
Cc1ccc(CN2CCCN(Cc3cc(C)ccc3C)S2(=O)=O)cc1 | 7.33* | -0.79*
Cc1cc(NC(=O)C2CCCN(S(=O)(=O)c3cnc[nH]3)C2)ccc1Br (stereo unspecified) | 0.83 | 0.15
COc1ccc(-c2[nH]ncc2CN2CCCN(c3ccccc3)CC2)c(F)c1 | 0.04 | -1.16
O=C(Cc1cn2ccsc2n1)Nc1ccccn1 | 0.9 | -1.84
COC(=O)c1c(O)c2ccccc2[nH]c1=O | 0.82 | -2.69
CC(C)Sc1nnc(-c2c[nH]c3ccccc23)n1C | 0.98 | -0.03
COC(=O)C1=C(C(=O)OC)C2(OC1c1cccc(F)c1)C(=O)c1ccccc1C2=O (stereo unspecified) | 0.56 | 1.89
N#CCC(=O)N/N=C/c1ccc(OCc2ccccc2)cc1 | 0.71 | -3.38
O=C1CN(C(=O)c2cccc(S(=O)(=O)N3CCCC3)c2)c2ccccc2N1 | 0.56 | -0.01

Compound profiles, as listed above:
Shown for `O=C1CN(C(=O)c2cccc(S(=O)(=O)N3CCCC3)c2)c2ccccc2N1` = KCNQ2 pot: 0.56; KCNQ2 pot baseline: -0.01
Shown for `COC(=O)C1=C(C(=O)OC)C2(OC1c1cccc(F)c1)C(=O)c1ccccc1C2=O` (stereo unspecified) = KCNQ2 pot: 0.56; KCNQ2 pot baseline: 1.89

The list is partial (hit frequency here may not be typical).
